Screening data from PubChem BioAssay.
VACV E9 pol inh = vaccinia E9 polymerase processive synthesis inhibitors, primary screen, biochemical, absorbance. Vaccinia virus DNA polymerase (E9) processive complex. in vitro processive DNA synthesis, absorbance read-out; stronger effect = lower value; some inactives read as strong as hits. normalized absorbance, % (test concentration not listed). 0.94% of 46,000 active. AID 493162, 2011;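 active = replicate mean up to 90% and picked by the depositor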;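 also: 100% = median of the test wells of a plate; 100 nL library stock went into each well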
Active calls of the source: *. An excerpt; rates above refer to the full screens.

structure,VACV E9 pol inh
Nc1ccccc1SC(CC(=O)c1ccc(Br)cc1)c1ccccc1 (stereo not given),104.2
COc1ccc(-c2ccc(Nc3ccc(OC(F)(F)F)cc3)nn2)cc1,102.0
NNc1ccccc1C(F)(F)F,106.3
N#CC(c1ccc(Br)cc1)N1CCN(C(C#N)c2ccc(Br)cc2)CC1 (stereo not given),106.4
C=C(C)c1cccc(C(C)(C)NC(=O)N2CCCC(C(N)=O)C2)c1 (stereo not given),100.0
CC12CC3(C)CC(C)(C1)CC(C(=O)NC1=NCCS1)(C2)C3,99.2
CSC1=C(C#N)C(c2ccccc2Cl)C2=C(CCCC2=O)N1 (stereo not given),102.0
Cc1ccccc1C(=O)ON1CCCc2ccccc21,100.1
O=C(OCc1c(Cl)cccc1Cl)c1ccc(Br)o1,103.6
CC(O)(CNCc1ccc(Cl)cc1)CSc1ccccc1Cl (stereo not given),100.1
O=C(NCCc1c[nH]c2ccccc12)c1cc2ccccc2oc1=O,100.1
NC(=O)CSc1nnc(-c2cccnc2)n1-c1ccccc1,110.2
COC(=O)c1cnc(-n2ncc(C#N)c2N)nc1C(F)(F)F,104.0
O=C(NCC(O)c1ccc2ccccc2c1)c1c(F)cccc1F (stereo not given),91.8
CC(C)(C)NC(=O)C12CC3CCC(CC(C3)C1)C2,99.1
Nc1c(C(=O)c2ccccc2)sc2snc(SCC(=O)c3ccccc3)c12,98.7
COc1cc2c(cc1OC)C(C)N(S(=O)(=O)c1ccc(-c3ccccn3)s1)CC2 (stereo not given),100.3
Cc1cc(=O)oc2cc(OCC(=O)O)c(Cl)cc12,101.1
O=C(O)C12CC3CC(C1)CC(n1ncc(NCCc4ccccc4)c(Cl)c1=O)(C3)C2,91.9
O=C(c1nc(-c2ccc(Cl)cc2)n2c1CCCCC2)N1CCCCCC1,92.3
CN(C)c1ccc2sc(=S)[nH]c2c1,99.4
Cc1cc(NC(=O)NC(=O)c2csnn2)no1,100.8
COc1ccccc1N(CC(=O)NC1CC2CCC1C2)S(=O)(=O)c1ccc(C)cc1 (stereo not given),99.3
COc1ccc(C2=NS(=O)(=O)N(C)C(C(=O)N3CCC(C)CC3)=C2)cc1OC,103.6
CCOc1ccc(CC(=Nc2ccccc2O)C2=C(O)CC(C)(C)CC2=O)cc1OCC,99.6
CCC(=O)NC1=NC(=O)/C(=C/c2cn(C(=O)CC)nc2-c2ccccc2)S1,99.7
CC(C)(C)c1cc(C(=O)CCN2CCOCC2)cc(C(C)(C)C)c1O,123.0
COC(=O)c1sccc1OC,111.6
CC(NC(=O)C(C)(C)C)c1nc2ccccc2[nH]1 (stereo not given),96.5
COC(=O)c1sccc1NN1C(=O)c2ccccc2C1=O,111.0

Pulled one by one from the entries so far (3):
structure,VACV E9 pol inh
COc1ccc(-c2ccc(Nc3ccc(OC(F)(F)F)cc3)nn2)cc1,102.0
Nc1ccccc1SC(CC(=O)c1ccc(Br)cc1)c1ccccc1 (stereo not given),104.2
CC(C)(C)NC(=O)C12CC3CCC(CC(C3)C1)C2,99.1

The results go on:
structure,VACV E9 pol inh
O=C(CCCN1C(=O)c2ccccc2C1=O)NC1CCCC1,99.5
COc1ccc2c(c1)nc(COc1ccccc1)n2C,107.1
O=C1c2ccccc2C(=O)N1Cc1nc2ccc(Br)cn2c1NC1CCCCC1,101.7
CC(C)CNc1cc(NCCO)c2c3c(onc13)-c1ccccc1C2=O,102.2
CCOC(=O)c1c(C)n(C)c2ccccc12,100.0
CCCCC/C=C\C/C=C\C/C=C\C/C=C\CCCC(=O)O[C@H](COCCCCCCCCCCCCCCCC)COP(=O)([O-])OCC[N+](C)(C)C,100.2
O=C(Oc1nsnc1N1CCCCC1)N(c1ccccc1)c1ccccc1,100.0
Cn1c(NCCO)nc2ccccc21,109.5
COc1cc(C2C(C#N)=C(SCc3ccccc3)NC3=C2C(=O)CCC3)ccc1O (stereo not given),101.3
COc1cc(N2C(=O)CSCC2=O)c(Cl)cc1Cl,102.5
S=C1NC2=C(C(c3ccccc3)N1)N1CCC2CC1 (stereo not given),100.0
COc1ccc(C2(C(=O)O)CCOCC2)cc1,88.6
COc1ccccc1/C=C/c1ccccc1OC,98.8
C=CCOC1=NC2C(C(=O)N(C)C(=O)N2C)N1C (stereo not given),94.9
Cc1ccc2[nH]c(=O)c3cc(C(=O)N4CCc5ccccc54)sc3c2c1,96.1
CC(Sc1nc(-c2ccccc2)cc(C(F)(F)F)n1)C(=O)NCCCn1ccnc1 (stereo not given),110.4
O=C1C=C(NCCc2ccccc2)CC(c2ccco2)C1 (stereo not given),100.2
CN(C)C(=O)c1ccccc1NS(=O)(=O)c1ccc(Br)cc1,91.7
CCn1cc(C(=O)O)c(=O)c2cc(F)c(NN3C(=O)CSC3c3ccccc3Cl)cc21 (stereo not given),96.5
O=C(COc1nsnc1N1CCOCC1)c1ccccc1,102.0
Cc1ccc(C(=O)/C=C2/CC(c3ccccc3)NCCN2)c(O)c1 (stereo not given),100.4
COc1ccc(CN(C)C(=O)c2cnc(OC)cc2C(F)(F)F)c(OC)c1,102.7
CSc1nc2ccc(NC(=O)C3CCCCC3)cc2s1,101.1
CN(c1ccc(O)cc1)c1nc(-c2cccnc2)cs1,105.4
C=CCN(CC=C)CC(O)Cn1c(-c2ccc(OC)cc2)cc2ccccc21 (stereo not given),99.9
O=C(/C=C/c1cccs1)Nc1ccccc1N1CCCCC1,104.4
CCOC(=O)c1sc(NC=O)c(C(=O)OCC)c1C,102.6
Cc1ccc(SCC2=NNC(=O)C2)cc1,93.5
O=C1C=C(Nc2ccccc2Br)CCC1,101.7
CC1=C(C#N)C(=O)N(C)C(=O)/C1=C/c1ccc(-c2ccc(Cl)cc2)o1,100.5
O=C(Oc1ccc2c3c(c(=O)oc2c1)CCCC3)c1ccccc1,91.6
CCn1c(SCc2nc(-c3cccs3)no2)nnc1-c1ccncc1,101.8
CCn1c(C(Cc2ccccc2)NC(=O)COC)nc2ccccc21 (stereo not given),101.3
COc1ccc(C2NN(CN3CCOCC3)C(=S)N2Cc2ccccc2)cc1 (stereo not given),100.3
CCOc1cc(C#N)c(NC(=O)c2ccc(OC)cc2)cc1OCC,99.9
CCN(CC)c1ccc(/C=C2\CCc3ccccc3C2=O)cc1,100.0
COc1ccc(CNC(=O)c2ccc[nH]2)cc1,111.6
CC1CCCN(C(c2ccc(F)cc2)c2c(O)[nH]c(=O)[nH]c2=O)C1 (stereo not given),100.9
COc1ccc(CCN(C)C(=S)NN)cc1OC,100.5
COc1cccc(/C=C2\SC(=S)N(C(Cc3ccccc3)C(=O)O)C2=O)c1 (stereo not given),98.7
CNC(=O)CN1C(=O)/C(=C/c2ccccc2C)Sc2ccccc21,100.9
COCc1cc(=O)[nH]c(/N=C(\NC(=O)c2ccc(C)cc2)Nc2cccc(Cl)c2)n1,100.9
CN(C)c1ccc(/C=C2/N=C(c3cccs3)OC2=O)cc1,101.1
CSC1=NC2(CCCCC2)NC2=C1CCCC2,99.6
O=C(Nc1nccs1)c1cccc2c1-c1ccccc1C2=O,104.1
O=c1ccn(CN2CCCCC2)c(=O)n1CN1CCCCC1,100.3
O=C(Nc1ccc(-c2nc3ncccc3o2)cc1)c1ccccc1,99.9
O=S(=O)(Cc1ccc(Cl)cc1Cl)c1nc2ncccc2[nH]1,100.0
CC(=O)NCCc1nc2ccccc2n1CC(C)C,101.7
Cc1nn(C)cc1C(=O)c1ccccc1,97.5
Cc1ccc(Oc2nc(Cl)nc(Oc3ccc(C)cc3)n2)cc1,100.5
CC(=O)Nc1ccc(C(=O)Cn2c3[n+](c4c(F)c(F)ccc42)CCCCC3)cc1,97.2
COC(=O)c1cnc(NN2C(=O)CCC2=O)nc1C(F)(F)F,112.3
O=C(Nc1ccc2ccccc2n1)c1ccc(Cl)cc1,95.7
CCOC(=O)C(C#N)C(=O)c1ccc(N)cc1 (stereo not given),100.7
Cn1c2ccccc2n2c(CCC(=O)O)c(-c3ccccc3)nc12,99.3
CCN(C)C(=O)/C=C/c1cnc2ccccc2c1,85.2
O=c1oc2ccccc2c(O)c1CN1CCCC1,96.3
N#CCCS(=O)(=O)c1nnnn1-c1ccccc1,98.1
CC1=C(O)C(=O)/C(=C/N(C)C)C1,105.5

Carrying on.
structure,VACV E9 pol inh
C=CCN=C(SCc1ccccc1)N1CCCC1,97.3
Cn1c(SCc2ccc(C(F)(F)F)cc2)nnc1C(F)(F)F,93.6
O=c1[nH]c2ccccc2nc1NC(=S)Nc1ccccc1,101.1
C=C(C)CC1C(=O)NN=C1C (stereo not given),98.7
CN(C)C(=S)Nc1ccccc1,100.8
COc1ccc2cc3c(N)nn(C(=O)Cc4c(F)cccc4Cl)c3nc2c1,100.5
CC1=C(C(=O)N2CCOCC2)C(c2ccc(C(F)(F)F)cc2)C2=C(CCCC2=O)N1 (stereo not given),100.0
Cc1cccc(C(=O)Nc2ccc(NC(=O)c3ccco3)cc2)c1,100.3
BrCCOc1cccc(Br)c1,99.6
CC(C)(C)c1ccc(OCC(=O)n2ncc(C#N)c2N)c(C(C)(C)C)c1,101.7
CCC(=O)Nc1c(Cl)nc(C)c(Cl)c1C,97.0
Cc1ccc(N/C(=C/C(=O)c2ccccc2)C(=O)O)cc1Br,98.8
CC1=C(C(=O)Nc2ccccc2)C(CC(C)C)n2ncc(C(=O)Nc3ccccc3)c2N1 (stereo not given),97.6
COc1ccccc1C=Nc1ccc2c(c1)nc(C)n2Cc1ccccc1,100.3
Ic1ccc(Nc2nc3nonc3n3nnnc23)cc1,100.2
O/N=C(\Cn1cncn1)c1ccc(Cl)cc1Cl,100.3
O=C(Nc1ccc(-c2nc3ccccc3[nH]2)cc1)c1ccc(-c2ccccc2)cc1,100.1
CC1(C)CC(N2C(=O)c3ccccc3C2(O)Cc2ccccc2)CC(C)(C)N1 (stereo not given),98.3
CNC(=O)c1cnc2cc(Cl)ccc2c1OC,100.4
CCCNC(=O)Cn1c2c(c(-c3ccccc3Cl)cc1=O)CCC2,103.8
C[n+]1[nH]oc(=O)c1-c1ccccc1,102.2
O=C(O)c1ccccc1N1C(=O)c2ccccc2C1=O,100.7
CN(/N=C/c1ccccc1)C1=NS(=O)(=O)c2ccccc21,100.5
COc1ccc(/C=N/N(C)C2=NCCN2)c(OC)c1OC,98.6
NCCSC12CC3CC(CC(C3)C1)C2,98.6
COc1cc2ccc(=O)oc2cc1O,98.9
Cc1ccc(Cl)cc1N(C)C(=O)c1cc2c(-c3ccc(Cl)cc3)nn(C)c2s1,102.5
Cc1ccc(S(=O)(=O)c2c(CO)c(-c3ccccc3)nn2C)cc1,97.0
CN1CN=C(SCc2cccc(C#N)c2)NC1,76.1*
CC1=C(C(=O)Nc2ccccn2)C(c2ccc(C)cc2)C2=C(CC(C)(C)CC2=O)N1 (stereo not given),99.8
CN(C)c1c(F)cc(C(=O)NC(=O)NCc2cccnc2)cc1F,100.2
N#CC(C#N)=C(C#N)c1ccc(Nc2ccccc2)cc1,98.8
O=C(CCCOc1ccc(Cl)cc1Cl)NO,99.0
CC(=O)NN1C(=O)/C(=C2\C(=O)N(C)c3ccccc32)SC1=S,99.5
CCc1cccc(NC(=O)C2=C(C)C(=O)OC23CCCCC3)c1,104.3
O=S(=O)(NCc1ccccc1)c1ccc(Cl)cc1,112.6
O=C(c1c[nH]c2ccc(S(=O)(=O)Nc3ccccc3F)cc2c1=O)N1CCOCC1,80.5
COc1ccccc1CNc1ncnc2c1cnn2-c1ccccc1,100.5
Cc1noc(C)c1CSc1nnnn1-c1ccccc1,96.1
O=C1NCCCC1C(=O)Nc1ccccc1C(F)(F)F (stereo not given),93.5
CC(C(=O)NCc1ccncc1)n1c(C(F)(F)F)nc2ccccc21 (stereo not given),117.8
CC(=O)Oc1ccc(-c2ccc(C(=O)O)cc2)cc1Cl,103.4
CCN(C)CC12CC3CC(CC(C3)C1)C2,99.8
CC[n+]1c(-c2c(C)oc3cc(O)ccc3c2=O)csc1C,102.5
CC(C)OC(=O)Cn1cnc2ccc(Br)cc2c1=O,99.8
CN(C)CCn1c(=O)c2[nH]cnc2n(C)c1=O,104.9
CCOC(=O)C1CCCN(C(=O)c2sc3nc(-c4ccc(OC)cc4)cn3c2C)C1 (stereo not given),102.2
Cc1nn2cc(-c3ccc(N)cc3)nc2s1,89.8
COc1ccc2cc3cc(C(=O)N(C)c4cccc(C)c4)oc3nc2c1,100.0
COc1ccc(NC(=O)CNc2cccc(Oc3ccccc3)c2)cc1,88.4
CC(CNC(=O)c1ccccc1)C(=O)OCC(=O)[C@@]12OC(C)(C)O[C@@H]1CC1C3CCC4=CC(=O)C=C[C@]4(C)[C@@]3(F)[C@@H](O)C[C@@]12C (stereo not given in full),101.2
O=S(=O)(Cc1ccccc1)Nc1cccnc1,99.7
C=CCn1c(COc2ccccc2)nc2ccccc21,100.4
CCS(=O)(=O)N1CCN=C1SC(C)c1ccccc1 (stereo not given),79.8
Cc1c(C(=O)NC(=S)Nc2ccc(Br)cn2)oc2ccccc12,100.0
CC(NC1=NCCS1)c1ccccc1 (stereo not given),106.6
S=c1nn[nH]n1C1CC2CC1C1C=CCC21 (stereo not given),99.0
Cc1ccccc1OCCn1c(CCCNC(=O)C2CCCCC2)nc2ccccc21,100.9
Cc1ccc(C(=O)COc2ccccc2O)cc1,105.9
COc1ccccc1Nc1nc(-c2ccccc2)c2cc(Cl)ccc2n1,99.2
COC(=O)c1c(C)sc2cc(C(C)(C)C)sc12,104.7
Cc1ccc(C)c(-n2[nH]cc(-n3cncn3)c2=O)c1,95.9
